Screening results as filed in PubChem BioAssay.
Rango release inh: inhibitors of RanGTP-induced Rango-importin beta complex dissociation. Biochemical FRET Rango-importin beta, RanGTP-induced dissociation. Potency, µM (highest dose often 46.1 µM), without a hit: at the top dose activity change, negative = inhibition. O95149+P62826. 340,000 compounds, 0.071% hits; active means falling FRET ratio curve, often poorly fitted, with flat reads before Ran was added; inconclusive means other falling curves, or compound fluorescence or quenching; inactive means flat or rising ratio curve;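 note: potency is the fitted concentration of half-maximal effect; % of control where 0% means no effect; nearly all actives have a fitted effect of over 45% in size; -100% = wells without RanGTP and RCC1; the record marks most hits as doubtful in a second field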
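Compounds preincubate 5 min with complex of recombinant Rango and importin beta in PBS with 1 mM DTT. Ran (0.6 uM) loaded with 2 mM GTP plus 0.2 uM RCC1 starts dissociation; FRET is recorded 45 min later.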
miR-21 reporter: miR-21 reporter, rising signal | 340,000 tested, under 10 active | Potency, µM (doses to about 38.3 µM), inactives show top-dose reporter change, positive = more light | HeLa miR-21 FLuc reporter, luciferase, 48 h; active = well fitted rising curve with a large enough effect; inconclusive = small, poorly fitted or top-dose-only effect; inactive = no such curve, though single readings can be large or run the other way;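 note: % of control where 0% means no effect; miR-21 action dims this reporter so a rising signal means less miR-21 action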
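HeLa miR-21-FLuc reporter line, endogenous miR-21; 2000 cells/well in DMEM/10% FBS; compound titration up to ~40uM final, 48 h, 37 degree Celsius; luciferase detection reagent, 15 min lysis, CCD luminescence.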
GLA inh pH 4.5: blocks human alpha-galactosidase A at pH 4.5; purified enzyme, 4-MU-alpha-Gal fluorescence, pH 4.5; P06280; activity change, negative = inhibition, % at 105 µM; 230,000 tested, under 10 active; inconclusive = small, poorly fitted or top-dose-only inhibition, or a rising curve; inactive = flat fitted curve, though single readings scatter; no compound was filed as active;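 note: 0% = full activity with enzyme and -100% = basal without enzyme; dose as in the result columns while the protocol names 77 µM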
Target sequence (P06280 whole entry, looked up): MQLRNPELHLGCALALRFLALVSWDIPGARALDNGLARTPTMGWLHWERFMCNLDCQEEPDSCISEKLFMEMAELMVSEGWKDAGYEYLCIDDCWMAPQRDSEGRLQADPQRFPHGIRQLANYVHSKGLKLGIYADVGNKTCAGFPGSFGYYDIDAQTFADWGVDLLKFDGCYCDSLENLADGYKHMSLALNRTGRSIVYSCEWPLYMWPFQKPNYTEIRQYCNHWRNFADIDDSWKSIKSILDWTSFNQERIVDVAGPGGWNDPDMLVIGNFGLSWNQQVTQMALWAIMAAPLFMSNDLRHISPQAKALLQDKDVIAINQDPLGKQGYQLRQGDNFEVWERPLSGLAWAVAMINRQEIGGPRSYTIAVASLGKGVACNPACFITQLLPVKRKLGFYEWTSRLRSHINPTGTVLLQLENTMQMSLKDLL
Rango complex inh: Rango-importin beta binding inhibition. 340,000 compounds, 0.031% hits. Rango CFP/YFP FRET sensor + importin beta, 45 min. Q14974. Potency, µM (series often up to 92.2 µM), for inactives: at the highest dose inhibition of complex formation; active = rising FRET ratio curve, often small or poorly fitted; inconclusive = mostly compound fluorescence or quenching in the first reads; inactive = flat curves in all reads;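 note: potency is the fitted concentration of half-maximal effect; 0% = DMSO wells and 100% = buffer wells lacking importin beta; nearly all actives have a fitted effect of over 15% in size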
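Inhibition scored from the CFP 486 nm/YFP 530 nm FRET ratio 45 min after adding 0.125 microM importin beta to 50 nM Rango biosensor preincubated 5 min with compound (room temperature, PBS with DTT, Tween-20, BSA). No-importin wells as positive control.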
Active calls of the source: *; u = inconclusive; x = no result given; & = joins results of further samples. This is a subset (hit frequency here may not be typical).

SMILES	Rango release inh	miR-21 reporter	GLA inh pH 4.5	Rango complex inh
COc1ccc(C(CNC(=O)c2cccc(S(=O)(=O)N3CCCC3)c2)N2CCCC2)cc1 (stereo not drawn)	1.7%	x	x	-0.5%
Clc1ncc(Cn2cccn2)s1	3.2%	-1.9%	-0.4	2.0%
N#Cc1ccccc1S(=O)(=O)N1CCN(C(=O)CCNS(=O)(=O)c2ccc(Cl)cc2)CC1	-7.3%	x	x	-0.6%
CC(=O)NC(Cc1ccc(F)cc1)C(=O)N1CCN(C(=O)NCc2ccccc2)CC1 (stereo not drawn)	9.0%	-4.3%	0.8	5.0%
COc1ccc(-c2cc(C)no2)cc1S(=O)(=O)N1CCOc2ccccc21	1.1%	0.7%&14.6%	x	-0.6%
Cc1cc(=O)[nH]c(Nc2ccccc2C)n1	3.7%	-1.3%	x	-0.5%
COCCNC(=O)c1ccccc1NC(=O)c1cc(OC)cc(OC)c1	-11.5%	10.1%	-1.8	-1.5%
Cc1nc(Cl)sc1C(=O)Nc1cccc2ccccc12	-5.3%	-12.9%	-2.6	0.4%
CCOC(=O)C1=C(c2ccccc2)NC(=O)NC1c1cc(OC)c(OC)c(OC)c1 (stereo not drawn)	-10.3%	x	x	2.3%
CNC(=O)COC(=O)Cc1ccc(Cl)cc1	-2.3%	-1.7%	-1.8	-1.3%
COc1ccc(OC)c(NC(=O)Cn2c(=O)n(CC(=O)NCc3ccco3)c(=O)c3ccccc32)c1	1.4%	-0.4%	-2.5	-6.3%
C=CC[C@H]1C=C[C@@H](C(C(=O)OC)C(=O)OC)CN1C(C)=O	-13.6%	x	x	0.4%
CCOCCCN(C(=O)CNC(=O)c1ccco1)C(C(=O)NC1CCCC1)c1cccc(OC)c1 (stereo not drawn)	-10.4%	-4.7%	x	-0.2%
O=C(CN1C2=NCCCN2c2ccccc21)c1ccc(Cl)cc1Cl	5.6%	18.6%	0.2	0.1%
COc1ccccc1OC(=O)Nc1ccc(Cl)cc1	6.4%	-39.7%	x	0.4%
CCCCCCCCCCCCCCCC(=O)Nc1ccn(C2OC(CO)C(O)C2O)c(=O)n1 (stereo not drawn)	0.9%	x	x	-4.1%
Cc1ccc(C(=O)O)cc1NC(=O)c1ccc2c(c1)C(=O)N(c1ccc([N+](=O)[O-])cc1)C2=O	-1.9%	-0.4%	x	2.1%
COC(=O)[C@H](Cc1ccccc1)NC(=O)N1CCCCCC1	-13.2%	-4.3%	x	3.0%
CN(NC(=O)c1ccccc1F)c1nc(C(F)(F)F)nc2ccccc12	u	u	-4.3	-3.8%
Cc1cccc(CN2CCC(Oc3ccc(C(=O)N4CCCC4)cc3)CC2)n1	10.4%	0.6%	x	-7.2%
COc1ccc(C(=O)O)cc1N1C(=O)Nc2ccccc2N1O	-7.6%	-0.1%	10.9	0.0%
COc1ccc(N2CCN(S(=O)(=O)CCNC(=O)Cc3ccc([N+](=O)[O-])cc3)CC2)cc1	-9.2%	2.8%	x	-0.2%
CCOC(=O)N1CCC(N2CCN(S(=O)(=O)c3ccc4ccccc4c3)CC2)CC1	-18.3%	16.0%	0.6	2.7%
CCCCc1cc(=O)oc2c3c(cc(OCC(=O)N4CCC[C@H]4C(=O)O)c12)OC(C)(C)CC3	5.1%	-2.3%	x	0.2%
COc1cc(C(=O)OCc2csc(CC(=O)Nc3ccccc3C)n2)ccc1OCC(C)C	10.2%	x	x	0.5%
O=C(CN(Cc1ccco1)C(=O)CNS(=O)(=O)c1ccc(F)cc1)NCc1ccco1	2.5%	0.2%	x	-0.5%
CCN(c1ccccc1)S(=O)(=O)c1cccc(C(=O)O)c1	8.2%	-6.9%	4.1	0.1%
COc1ccccc1N1CCN(CCCCOc2ccc(F)cc2)CC1	-7.6%	1.7%	-12.0	-0.6%
COc1ccc(S(=O)(=O)NC2CCCC2)cc1Br	-1.7%	-6.2%	7.6	0.0%
O=C(NCCC1=CCCCC1)C(=O)NCc1ccncc1	-5.0%	0.0%	2.1	-2.3%
COc1cccc(NC(=O)c2nn(-c3ccc(OC)cc3OC)c(=O)c3ccccc23)c1	5.7%	0.4%	-1.3	-2.1%
COc1ccc(CC(=O)Nc2ccccc2N2CCCCC2)cc1OC	-13.2%	10.5%	-4.4	-2.4%
Cc1cc(C(=O)NC2CCCN(Cc3ccc(Cl)cc3)C2)c(C)o1 (stereo not drawn)	-2.2%	5.0%	x	-4.8%
O=C(O)c1ccc2ncc(NC(=O)c3ccc(F)cc3)c(=O)n2c1	10.3%	-3.4%	-21.7	-2.4%
CCOC(=O)/C(C(N)=NCc1ccco1)=C(/O)c1ccccc1	-7.4%	-2.3%	-12.2	1.1%
Cc1ccc(-c2noc(CSc3nnc(Cc4ccccc4)n3-c3cccc(C)c3)n2)cc1	-3.5%	16.7%&11.4%	-3.4	0.9%
C/C=C/c1ccc(OCC(=O)NCc2ccccc2OC)c(OC)c1	14.7%	0.5%	-3.8	1.2%
COc1cc(NCCCNC(C)C)c2nccc(C)c2c1	-2.8%	x	x	u
CCN1CCN(Cc2c(C)[nH]c3ccc(OC)cc3c2=O)CC1	2.7%	-1.0%	4.0	3.0%
O=C(O)/C=C/c1ccc(O)c(O)c1	-1.0%	-3.7%	0.5&3.3&-8.3&2.3	u
CCN(CC(=O)NCc1cccs1)C(=O)/C=C/c1cc(OC)ccc1OC	u	x	x	u
NC(=O)COC(=O)c1cc(S(=O)(=O)N2CCOCC2)ccc1N1CCCCC1	-2.3%	-6.4%	6.7	1.4%
COc1ccc(S(=O)(=O)N2CCOC2CNC(=O)C(=O)NCc2cccnc2)cc1OC (stereo not drawn)	26.6%	-0.5%	1.8	-4.0%
CC(=O)Nc1cccc(NC(=O)c2ccc(C(=O)Nc3cccc(NC(C)=O)c3)nc2)c1	2.2%	-17.2%	3.4	-2.4%
O=C(Nc1ccc(Cl)c(Cl)c1)Nc1ccc(Br)cc1F	0.4%	u	-4.1	3.0%
CNC(=O)CSc1nnnn1-c1cc(C)ccc1C	7.5%	-1.6%	4.4	-1.5%
COc1ccc(N2CC(C(=O)N3CCN(c4ccccc4)CC3)CC2=O)cc1 (stereo not drawn)	6.5%	-1.0%	x	0.5%
O=C1NC2(CCCCC2)N=C1c1ccc(F)cc1	12.0%	-9.7%	7.0	0.4%
CCCCNc1nc(-c2ccccc2)c(C(=O)OCC)cc1C#N	0.0%	13.4%	-14.7	-2.9%
O=C(CN1C2CCCC1CC(NC(=O)C1CCCCC1)C2)NCc1ccc(F)cc1 (stereo not drawn)	5.7%	0.0%	2.8	-0.7%
(listing goes on)
SMILES	Rango release inh	miR-21 reporter	GLA inh pH 4.5	Rango complex inh
Cc1[nH]c2c(C)cccc2c1CN1CCC(CO)(Cc2ccccc2)CC1	6.3%	-2.0%	-2.7	-2.3%
O=C(NCC1CCCO1)C1CC(=O)N(c2ccc(F)c(Cl)c2)C1 (stereo not drawn)	26.6%	-1.4%	-4.5	-3.2%
CN(C)c1cc(N/N=C/c2ccc(Cl)cc2)nc(N(C)C)n1	-17.9%	1.6%	-11.8	-0.3%
Cc1nn2c(=O)c(NC(=O)c3ccc(F)cc3)cnc2s1	9.2%	-4.0%	3.4	-5.3%
COC(=O)N1CCN(c2ccc(OC)cc2)CC1	2.7%	-12.9%	-3.6	5.1%
COc1ccc(-c2csc(NC(=S)NC(=O)c3ccc4ccccc4c3)n2)cc1OC	-16.9%	-5.9%	x	1.7%
CCC(CC)c1nc2ccccc2c(=O)[nH]1	-23.2%	-3.9%	-5.4	5.1%
O=C(Nc1ccccn1)c1cccs1	1.5%	-30.7%	1.1	-2.5%
CCOC(=O)N1CCN(C(=O)c2cc(COc3ccc(F)cc3F)on2)CC1	-0.9%	-42.4%	x	6.7%
COc1ccc(S(=O)(=O)n2ccc(-c3cnc(-c4ccccc4)s3)n2)cc1	11.2%	-24.0%	-1.8	-0.5%
O/N=C/c1cc2ccccc2n1Cc1ccccc1F	0.6%	-6.9%	x	-1.2%
N/C(=N\OC(=O)CC1CCCCC1)c1ccncc1	12.6%	-11.6%	-15.3	-2.0%
CC(C)c1ccc(/C=C/C(=O)Nc2nn[nH]n2)cc1	x	-25.1%	3.3	x
Cc1cccc(Nc2c3c(nc4ncnn24)CCC3)c1	-15.6%	-16.0%	-14.0	-0.2%
Cn1cccc1Cc1nnc(SCC(=O)Nc2ccccc2)n1-c1ccc(F)cc1	-15.4%	-4.7%	7.9	-6.2%
Cc1cc(/C=C2\SC(=O)N(C)C2=O)c(C)n1-c1cccc(C(=O)O)c1	0.2%	-27.2%	x	0.5%
Cc1ccccc1CNC(=O)c1ccccc1C(=O)O	-2.4%	-5.5%	1.3	-2.2%
CCC(O)(CC)C(=O)NN(C(=O)Nc1csc2c1CCCC2)c1ccccc1	-10.3%	-7.8%	-1.3	0.7%
COc1ccc(C(=O)NCc2ccc3c(c2)OCO3)cc1S(=O)(=O)N(C)Cc1ccccc1	-1.0%	-5.8%	-6.4	-6.4%
COCCCn1c(SCC(=O)Nc2ccccc2)nnc1-c1ccncc1	-0.4%	-5.4%	3.3	1.4%
COc1ccc(CNC(=O)CN(C(=O)CCC(=O)Nc2nccs2)c2ccc3c(c2)OCO3)cc1	-10.3%	-17.7%	x	u
Cc1ccc(C(=O)NC(=S)Nc2cc(-c3nc4ccccc4s3)ccc2C)cc1	-8.9%	-54.9%	3.9	-0.8%
CC(C)=CCCC(C)CN1CCC(n2nccc2NC(=O)c2cccnc2)CC1 (stereo not drawn)	7.2%	-0.8%	x	u
Oc1ccc(C[C@H]2CNCCN2CCCCC2CCCCC2)cc1	-4.6%	x	x	5.0%
CCc1ccc2nc(N3C(=O)c4oc5ccccc5c(=O)c4C3c3ccc(OC)c(OC)c3)sc2c1 (stereo not drawn)	x	-7.8%	-4.4	x
Cc1cccc(NC(=O)c2ccc(S(=O)(=O)N3CCCCC3C)cc2)n1 (stereo not drawn)	-0.8%	x	x	-2.6%
C#CCOCCOCCOCCNc1nc(N2CCN(C(=O)[C@H](CCCCN)n3cc(CN)nn3)CC2)nc(N2CCN(C(=O)[C@H](CCC(=O)O)n3cc(CN)nn3)CC2)n1	2.0%	x	x	0.1%
Cc1noc(C)c1S(=O)(=O)Nc1ccc(C(=O)NCc2ccccc2)cc1	10.5%	-6.8%	1.5	5.1%
CC(=O)NS(=O)(=O)c1cccnc1Nc1ccc(Cl)c(Cl)c1	1.1%	-6.0%	5.5	-0.3%
Cc1ccc(-c2nn(C)c(=O)c3ccccc23)cc1S(=O)(=O)NCCO	11.6%	-4.7%	0.3	0.5%
N#Cc1ccc(C(=O)Nc2nc(SCc3ccc(Cl)cc3)n[nH]2)cc1	13.8%	-9.7%	-1.8	3.3%
CN(C)CCNc1nc(-c2ccccc2)c2c(c1C#N)CC(C)(C)OC2	-12.4%	-1.2%	4.6	-3.2%
COC(=O)Cn1ncc2c3ccccc3n(Cc3ccccc3)c2c1=O	-4.4%	-0.7%	-26.9	-1.9%
Cc1cccc(OCC(=O)N2CCN(C(=O)CCC3CCCC3)CC2)c1	24.2%	-2.6%	-24.3	0.3%
COc1ccccc1-c1cnn2c(NC3CCCC3)cc(C)nc12	14.7%	-66.9%	x	-2.2%
CCC1(c2ccccc2)NC(=O)N(CC(=O)NNC(=O)COc2ccc(Cl)cc2C)C1=O (stereo not drawn)	4.8%	x	x	-0.1%

Single records (already shown). Screens in order: Rango release inh, miR-21 reporter, GLA inh pH 4.5, Rango complex inh
Listed for CCC1(c2ccccc2)NC(=O)N(CC(=O)NNC(=O)COc2ccc(Cl)cc2C)C1=O (stereo not drawn) → 4.8%, x, x, -0.1%
Listed for COc1ccccc1-c1cnn2c(NC3CCCC3)cc(C)nc12 → 14.7%, -66.9%, x, -2.2%
Listed for COC(=O)Cn1ncc2c3ccccc3n(Cc3ccccc3)c2c1=O → -4.4%, -0.7%, -26.9, -1.9%
Listed for N#Cc1ccc(C(=O)Nc2nc(SCc3ccc(Cl)cc3)n[nH]2)cc1 → 13.8%, -9.7%, -1.8, 3.3%
Listed for CN(C)CCNc1nc(-c2ccccc2)c2c(c1C#N)CC(C)(C)OC2 → -12.4%, -1.2%, 4.6, -3.2%
